GPR35 arrestin U2OS = GPR35 antagonists blocking zaprinast-driven arrestin recruitment, primary screen, imaging, U2OS, beta-arrestin-GFP, zaprinast agonist (AID 2058); U2OS GPR35 beta-arrestin-GFP translocation imaging, zaprinast antagonism; higher % means a stronger effect; hit rate 0.052% among 290,000; one-dose inhibition, % at 10 µM; IC50 in µM for titrated hits;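 active means inhibition of at least 50% with at least 30 cells and total cytoplasm GFP at most 10,000,000; inconclusive means under 30 cells or total GFP of 10,000,000 plus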
KOR beta-arrestin-1 = kappa opioid receptor blockers – cell-based, luminescence, uHTS (AID 1778); KOR beta-arrestin recruitment, luminescence, antagonist mode; higher % means a stronger effect; inhibition, % at 10 µM, or IC50 in µM where a hit was titrated; hit rate 0.091% among 290,000; in the data active means inhibition above about 50%; further: strong numbers were not always called active
GPR55 beta-arrestin = GPR55 agonists via beta-arrestin recruitment, primary screen, imaging, U2OS cells, beta-arrestin-GFP redistribution (AID 1961) | U2OS GPR55 beta-arrestin-GFP redistribution imaging; higher % means a stronger effect | activation, % at 10 µM; hits with a dose series show EC50 in µM | hit rate 0.048% among 290,000;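 active means activation above 40% with more than 50 cells counted in the well; inconclusive means wells holding fewer than 50 cells, flagged as toxic or sparse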;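 further: U2OS osteosarcoma cells stably expressing GPR55 and beta-arrestin-GFP; plate controls were DMSO negative control for no effect and LPI positive control for full effect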
HIV fusion peptide = cell-free HIV fusion peptide-binding blockers – biochemical, uHTS, fluorescence dequenching, primary screen (AID 1986); cell-free peptide binding, fluorescence dequenching, 30 min; higher % means a stronger effect; inhibition, % at 20 µM; hits with a dose series show IC50 in µM; hit rate 0.3% among 290,000; in the data active means inhibition mostly above about 52%, no sharp cut-off; inactive means mostly below about 76%; further: some results filed as inactive read as strong as hits
GPR55 LPI antagonism = GPR55 antagonists blocking LPI-driven arrestin recruitment, primary screen, imaging, U2OS, beta-arrestin-GFP, LPI agonist (AID 2013); inhibition, % at 10 µM, or IC50 in µM where a hit was titrated; U2OS GPR55 beta-arrestin-GFP translocation imaging, LPI antagonism; higher % means a stronger effect; hit rate 0.13% among 290,000;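 active means spots per cell inhibited over 60%, with over 100 cells counted and total cytoplasm intensity under 500,000; inconclusive means wells with under 100 cells, flagged as likely toxic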;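 further: U2OS cells stably carrying GPR55 and arrestin-GFP stimulated by 5 µM LPI near EC80; imaged beta-arrestin-GFP aggregate spots per cell after agonist stimulation; plate controls were LPI-stimulated DMSO wells for no effect and DMSO wells without LPI for full effect; some results filed as inactive read as strong as hits; confirmed hits need IC50 under 10 µM and bright autofluorescent wells are also inconclusive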
West Nile virus CPE = inhibition of WNV-induced cytopathic effect – cell-based, CPE readout (AID 1621); West Nile virus-infected cells, CPE inhibition; higher % means a stronger effect; CPE inhibition, % at 10 µM, or IC50 in µM where a hit was titrated; hit rate 0.02% among 290,000; in the data active means a potency from the dose series; inconclusive means CPE inhibition mostly from about 3.7% at the one dose, without a potency; inactive means the rest, 99 in 100 with CPE inhibition below about 2.2%; further: strong numbers were not always called active
NS5 inhibitors = flavivirus cap methylation enzyme inhibition – biochemical, confirmation dose response, primary screen (AID 588689) | Dengue-2 NS5 methyltransferase capping enzyme assay, biochemical; higher % means a stronger effect | one-dose inhibition, % at 25 µM; IC50 in µM for titrated hits | hit rate 0.3% among 340,000; in the data active means a potency from the dose series; inconclusive means inhibition above about 29% without an active follow-up result
KOR beta-arrestin-2 = kappa opioid receptor activators – cell-based, luminescence, uHTS, primary screen (AID 1777). KOR beta-arrestin recruitment, luminescence; higher % means a stronger effect. one-dose activation, % at 10 µM; EC50 in µM for titrated hits. hit rate 0.02% among 280,000; in the data active means activation above about 50%, passing the limit was not always enough; further: a part of the inactive calls stands beside numbers as strong as those of hits
NS5 inhibitors pilot replicate = also measured in NS5 inhibitors; calls as there; inhibition, %; measured here: pilot screen replicate inhibition
Active calls of the source: *; ? = inconclusive; / = no result given; [ ] = dose if it differs, or a comment.

SMILES | GPR35 arrestin U2OS | KOR beta-arrestin-1 | GPR55 beta-arrestin | HIV fusion peptide | GPR55 LPI antagonism | West Nile virus CPE | NS5 inhibitors | KOR beta-arrestin-2 | others
COc1ccc(N(C(=O)CCl)C(C(=O)NCCc2ccccc2)c2cccs2)cc1 (stereo not drawn) | -6% | -5% | 0.2% | 1.4% | 14% | ? | -3% | 10%
Cc1ccccc1N(Cc1cc(=O)[nH]c2ccccc12)C(=O)CCl | 6% | -51% | -0.1% | -0.1% | -11% | -0.9% | -13% | 9.7%
Cc1ccc(Cl)c(NC(=O)COC(=O)c2ccccc2C(=O)c2ccc(Cl)c([N+](=O)[O-])c2)c1Cl | 17% | 14% | -0.2% | -3.4% | -1% | 1.3% | 1% | -1.5%
COc1ccc(-c2cn[nH]c2-c2ccc(O)cc2O)cc1 | 1% | -17% | -0.1% | -3.6% | -8% | -0.1% | -3% | -4.8%
O=C(NCc1cccnc1)/C(=C\c1ccc(-c2cccc(Cl)c2)o1)S(=O)(=O)c1ccccc1 | -2% | 22% | -0.1% | 2.6% | 14% | -1.4% | -32% | -0.6%
CCOC(=O)C1=C(Cc2ccc(C)cc2)C(=O)c2ccccc2C1=O | 5% | -67% | 1.2% | -2.1% | -3% | -0.2% | / | 16%
Cc1cc(C(=O)CSc2nnc(-c3cccs3)o2)c(C)n1-c1ccccc1 | -5% | -16% | -0.1% | 18% | 2% | -0.5% | 3% | -2.6%
Brc1ccc2ncnc(NCc3cccnc3)c2c1 | 8% | 9% | -0.1% | -1.4% | 3% | -0.1% | -12% | -0.8%
Cn1c(=O)[nH]c(=O)c2c1nc([N+](=O)[O-])n2Cc1ccccc1 | 33% | -55% | -0.1% | -1.6% | -2% | -1.9% | -43% | -0.9%
COc1ccc(-c2nc3c([nH]2)c(=O)n(C)c(=O)n3C)c(OC)c1 | 6% | -13% | -0.1% | 0.5% | 4% | 0.8% | 1% | 13%
O=C(N/N=C/c1ccc([N+](=O)[O-])o1)c1ccccc1-n1cccc1 | 16% | -3% | -0.1% | 4.0% | 4% | ? | -2% | -4.1%
COc1cccc(C(=O)Nc2nc3c(s2)CN(C)CC3)c1 | -5% | 22% | -0.1% | 4.7% | -6% | -0.3% | -2% | 1.3%
c1ccc(CN2CCN(c3ncnc4c3[nH]c3ccccc34)CC2)cc1 | 14% | -29% | -0.1% | -2.2% | -2% | 1.7% | 0% | 4.0%
Cc1ccc(-c2csc3ncnc(Sc4nnc(CN5CCCCCC5=O)o4)c23)cc1 | -10% | 10% | 2.7% | 1.3% | 29% | -2.4% | -5% | -2.7%
COC(=O)CCn1nnc(-c2ccc(C(C)C)cc2)n1 | -13% | -90% | -0.3% | -1.5% | -10% | 0.2% | -2% | -1.0%
COc1ccc(-n2c(C)c(C(C)=O)c3cc(OC(C)=O)ccc32)cc1 | 8% | -46%[20 µM] | -0.2% | -1.0% | 16% | -0.4% | -10% | 4.7%
COc1ccc(Nc2oc(COc3ccccc3OC)nc2C#N)cc1 | -11% | -25% | 0.0% | 0.1% | 2% | -0.4% | -4% | 2.1%
Cc1c(-c2ccccc2)oc2c(C(=O)N3CCN(c4ccc([N+](=O)[O-])cc4)CC3)cccc2c1=O | -12% | -54% | -0.2% | -1.8% | 2% | -0.4% | -5% | 0.9%
Cc1ccc(-n2[nH]c3c4c(ccc3c2=O)C(=O)c2ccccc2C4=O)cc1 | -2% | 22% | -0.3% | -3.8% | -3% | / | 1% | 4.6%
COC(=O)C1CCCCN1C(=O)c1cc(COc2cccc3cnccc23)on1 (stereo not drawn) | -4% | -30% | 0.0% | -0.4% | -46% | -1.2% | -4% | 7.2%
Cc1ccc(C(=O)N2CCN(c3ccc(NC(=O)c4ccc5c(c4)OCCO5)cc3)CC2)cc1 | -2% | 22% | 0.0% | -1.7% | 10% | -0.2% | -4% | 3.9%
COc1cc(C2CC(c3cccs3)=NN2C(=O)CCl)ccc1OC(F)F (stereo not drawn) | 10% | 11% | -0.1% | 3.4% | 13% | -1.7% | -56% | -6.2%
O=C(NCc1ccco1)c1sc(=S)n2c1[nH]c(=O)c1ccccc12 | 2% | -24% | 0.3% | -1.2% | -18% | -0.1% | 0% | -2.7%
COc1ccc2cc3c(N)nn(C(=O)Cc4c[nH]c5ccccc45)c3nc2c1 | -30% | -24% | -0.1% | 1.7% | 16% | 0.7% | -7% | -1.3%
O=C(O)CCCN1C(=O)/C(=C\C(Cl)=C\c2ccccc2)SC1=S | 0% | -37% | 0.0% | 40% | 40% | -1.6% | 36µM* | -1.7%
CC(C)(C)C(=O)Nc1ccc(NC(=O)c2ccco2)nc1 | -4% | -35% | -0.2% | 0.5% | -7% | 0.6% | -1% | 1.7%
O=C(Nc1cccc(C(=O)N2CCOCC2)c1)c1cccnc1 | 3% | 27% | 0.2% | -2.4% | 7% | 1.4% | -6% | -3.9%
CCCN(CC(=O)Nc1ccccc1C)C(=O)CCl | 3% | -55% | -0.6% | -0.9% | 11% | -0.1% | -2% | 3.0%
CCOc1cc(C2NC(=O)NC(c3ccccc3)=C2C(C)=O)ccc1OCC(N)=O (stereo not drawn) | 7% | 23% | 0.2% | -1.2% | -3% | / | -5% | -1.9%
O=C(NC(=S)Nc1ccc2c(c1)OCO2)c1ccccc1 | 7% | 19% | -0.1% | 2.1% | 5% | -0.2% | 9% | 0.2%
COc1cc(CN2CCN(C(=O)CC(C)C)CC2)cc(OC)c1OC | 5% | 8% | -2.3% | -1.1% | 10% | -0.2% | -5% | 0.2%
CC(C)(C)c1ccc(-c2noc(CCC(N)=O)n2)cc1 | -10% | 2% | -0.2% | 6.3% | -6% | 0.0% | -4% | 9.8%
O=C(NC(=S)N1CCN(c2ccc(C(F)(F)F)cc2[N+](=O)[O-])CC1)c1cccs1 | 12% | 6% | -0.1% | 5.3% | 9% | -1.3% | -5% | -5.3%
CCC(=O)N1CCN(c2ccc(NC(=O)c3cc4ccccc4o3)cc2Cl)CC1 | -27% | -19% | 0.2% | -3.0% | 20% | / | / | 6.4%
CC(C)(C)c1ccc(-c2noc(CCC(=O)Nc3cccnc3)n2)cc1 | -2% | 0% | 0.2% | 3.0% | -6% | -0.2% | -4% | -3.6%
CC(Nc1ncnc2ccccc12)c1ccccc1 (stereo not drawn) | 18% | -3% | 0.0% | -1.5% | 1% | -0.4% | -2% | -0.2% | NS5 inhibitors pilot replicate=6.7
CC(=O)c1cccc(Nc2ncnc3ccc(Br)cc23)c1 | -10% | -7% | -0.1% | -0.2% | 3% | 0.1% | -5% | 1.1%
CCN1/C(=C/C(C)=C/c2sc3ccccc3[n+]2CC)Sc2ccccc21 | 1µM* | 12% | -0.6% | 11% | ? | 1.1% | ? | -4.8%
O=C(Nc1ccc(Cl)c(S(=O)(=O)N2CCOCC2)c1)c1ccc(OCC2CCCO2)cc1 (stereo not drawn) | -13% | -32% | -0.4% | -0.4% | 2% | 1.0% | / | 8.7%
CC[n+]1ccc(/C=C/c2ccc(N(C)C)cc2)c2ccccc21 | 103%* | -3% | 0.6% | -3.0% | -15% | -1.3% | 7% | -8.7%
O=C(NNS(=O)(=O)c1cc(Cl)cc(Cl)c1)c1sccc1-n1cccc1 | -4% | -6% | 0.1% | 14% | 0% | -0.4% | -5% | -0.6%
CCN1/C(=C/c2ccc3cc(C)ccc3[n+]2CC)Sc2ccccc21 | ? | 12% | -0.6% | 27% | ? | -1.3% | -95% | 12%
O=C(Nc1nc(-c2ccccc2)cs1)C1CCCN(S(=O)(=O)c2ccccc2)C1 (stereo not drawn) | 6% | 27% | -0.2% | -2.1% | 6% | 0.1% | 1% | -3.0%
O=C(CCC(=O)Nc1ccc(Br)cc1)N/N=C/c1ccccc1O | 5% | -1% | -0.3% | -1.9% | -2% | ? | -8% | -1.8%
Cc1ccc2[nH]c3c(N4CCc5ccccc5C4)ncnc3c2c1 | 5% | 6% | -0.1% | -1.0% | 1% | ? | -4% | -0.8%
CCOC(=O)N=Nc1c2ccccc2c2nc3no[nH]c3nc12 | 1% | -24% | -0.4% | -2.9% | 7% | -1.3% | / | -2.0%
Cc1ccc(C2=NOC(=O)/C2=C\C=C\c2ccccc2)cc1 | 6% | -66%[20 µM] | -0.1% | 8.9% | 17% | 3.3% | -46% | 3.4%
CCN1/C(=C/c2cc[n+](C)cc2)C=Cc2cc(C)ccc21 | -6% | 20% | 0.2% | -2.6% | -1% | -1.7% | 20% | -0.6%
COc1cc(-c2nnc(-c3ccc(N4CCOCC4)cc3)o2)cc(OC)c1OC | -13% | 9% | -2.3% | -2.7% | 15% | 0.1% | -5% | -3.5%
O=C(Nc1ccc(N2CCN(c3ncccc3C(F)(F)F)CC2)nc1)c1cccs1 | -3% | -8% | 0.1% | -0.6% | 6% | 2.8% | -13% | 2.7%
Cc1nn(-c2ccccc2)c(Cl)c1CN(C(=O)CCl)c1ccc(Cl)cc1 | 17% | 25% | 2.0% | -0.9% | 11% | -1.1% | -3% | 9.5%
CCCCN(C)S(=O)(=O)c1ccc(C(=O)Nc2nnc(-c3cccs3)o2)cc1 | 6% | -82% | 0.7% | 36% | 0% | 1.4% | / | 0.9%

Grouped by structure, the entries above with a thiophene ring, fused or not (8)
SMILES | GPR35 arrestin U2OS | KOR beta-arrestin-1 | GPR55 beta-arrestin | HIV fusion peptide | GPR55 LPI antagonism | West Nile virus CPE | NS5 inhibitors | KOR beta-arrestin-2 | others
COc1ccc(N(C(=O)CCl)C(C(=O)NCCc2ccccc2)c2cccs2)cc1 (stereo not drawn) | -6% | -5% | 0.2% | 1.4% | 14% | ? | -3% | 10%
Cc1cc(C(=O)CSc2nnc(-c3cccs3)o2)c(C)n1-c1ccccc1 | -5% | -16% | -0.1% | 18% | 2% | -0.5% | 3% | -2.6%
Cc1ccc(-c2csc3ncnc(Sc4nnc(CN5CCCCCC5=O)o4)c23)cc1 | -10% | 10% | 2.7% | 1.3% | 29% | -2.4% | -5% | -2.7%
COc1cc(C2CC(c3cccs3)=NN2C(=O)CCl)ccc1OC(F)F (stereo not drawn) | 10% | 11% | -0.1% | 3.4% | 13% | -1.7% | -56% | -6.2%
O=C(NC(=S)N1CCN(c2ccc(C(F)(F)F)cc2[N+](=O)[O-])CC1)c1cccs1 | 12% | 6% | -0.1% | 5.3% | 9% | -1.3% | -5% | -5.3%
O=C(NNS(=O)(=O)c1cc(Cl)cc(Cl)c1)c1sccc1-n1cccc1 | -4% | -6% | 0.1% | 14% | 0% | -0.4% | -5% | -0.6%
O=C(Nc1ccc(N2CCN(c3ncccc3C(F)(F)F)CC2)nc1)c1cccs1 | -3% | -8% | 0.1% | -0.6% | 6% | 2.8% | -13% | 2.7%
CCCCN(C)S(=O)(=O)c1ccc(C(=O)Nc2nnc(-c3cccs3)o2)cc1 | 6% | -82% | 0.7% | 36% | 0% | 1.4% | / | 0.9%

Source: PubChem BioAssay (several laboratories)

An excerpt (hit frequency here may not be typical).
